# Bioassay records deposited in PubChem by ICCB-Longwood Screening Facility, Harvard Medical School.
# BmaI1 = BmaI1 acyl-homoserine lactone synthase inhibition – biochemical, fluorescence intensity, with counterscreen (AID 720554). BmaI1 enzyme assay, fluorescence intensity; active compounds read high; test concentration not given here; a few actives read low; strong numbers were not always called active. inhibition, %. 12,000 compounds, 0.4% hits;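 active = both replicates within 2 robust z-scores of the inhibited control and a quiet counterscreen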;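 note: 0% = uninhibited enzyme and 100% = inhibited control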
# BmaI1 counterscreen = further read-out of BmaI1, marked with its call; inhibition, %; measured here: counterscreen; design of the counterscreen not given here;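 first of two replicates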
# The depositor's hits bear a star; & = joins results of further samples. An excerpt. The share of hits here may be higher or lower than overall.
SMILES,BmaI1,BmaI1 counterscreen
CC(Sc1ccc(S(=O)(=O)N2CCN(C)CC2)cn1)C(=O)NC1(C#N)CCCCC1 (configuration not stated),9,2
Cc1ccc2c(c1)C1CN(C)CCC1N2C(=O)c1ccco1 (configuration not stated),16,6
CCn1nc(C(=O)Nc2sccc2C(N)=O)c2ccccc2c1=O,28,14
COc1cccc(C(=O)NCc2ccccc2OC)c1,13,4
COc1cccc(COC(=O)c2ccc3c(c2)C(=O)N(Cc2ccncc2)C3=O)c1OC,12,8
CC(=O)Nc1ccc(S(=O)(=O)NCCC(=O)Nc2nc(C)cs2)cc1,9,3
CCOC(=O)CCn1cnc2cc(Br)ccc2c1=O,21,12
CC1(C)CSC(=Nc2cccc(C(F)(F)F)c2)N1C(=O)/C=C/c1ccco1,10,14
CN1CCN(c2nc(-c3ccc(Cl)s3)cs2)CC1,4,12
CC(N)c1ccco1 (configuration not stated),6,0
CCOC(=O)[C@H](CCc1ccccc1)N[C@@H](C)C(=O)N1[C@H](C(=O)O)C[C@@H]2CCC[C@@H]21,4&-6,11&8
O=C(Cn1cnnn1)Nc1ccc(Sc2ccc(Br)cc2)cc1,10,2
CC(C)n1nccc1N(CC(=O)N(C)C1CCCCC1)S(=O)(=O)c1ccccc1,16,0
NC(=O)C1CCCCN1Cc1cc2c(cc1O)CCC2 (configuration not stated),-29,-32
COCC(C)n1c(C)cc(C(=O)CSC2=N/C(=C\c3ccco3)C(=O)N2c2ccc(OC)c(Cl)c2)c1C (configuration not stated),18,6
Cc1ccc(C)n1-c1ccc(C(=O)N2CCNC(=O)C2)cc1,20,2
Cc1noc(C)c1CC(=O)Nc1ccc2c(c1)OCCCO2,-7,-12
COC(=O)c1sc(NC(=O)CSc2n[nH]c(-c3cccs3)n2)c(C(=O)OC)c1C,3,6
Cc1cc(=O)n2ccccc2c1C#N,17,9
Clc1ccc2c(N3CCN(c4ncccn4)CC3)ccnc2c1,26,9

# Four entries from above, field by field:
CCOC(=O)[C@H](CCc1ccccc1)N[C@@H](C)C(=O)N1[C@H](C(=O)O)C[C@@H]2CCC[C@@H]21
  BmaI1: 4&-6
  BmaI1 counterscreen: 11&8

Cc1ccc(C)n1-c1ccc(C(=O)N2CCNC(=O)C2)cc1
  BmaI1: 20
  BmaI1 counterscreen: 2

CC(C)n1nccc1N(CC(=O)N(C)C1CCCCC1)S(=O)(=O)c1ccccc1
  BmaI1: 16
  BmaI1 counterscreen: 0

COC(=O)c1sc(NC(=O)CSc2n[nH]c(-c3cccs3)n2)c(C(=O)OC)c1C
  BmaI1: 3
  BmaI1 counterscreen: 6

# (continued)
SMILES,BmaI1,BmaI1 counterscreen
CC1CCCC(C)N1/N=C/c1ccccc1OC(F)F (configuration not stated),4,-2
CCOC(=O)C(Sc1nnc(C(CC)N(C)C)n1Cc1ccccc1)c1ccccc1 (configuration not stated),2,4
CSc1nnc(-c2ccncc2)n1-c1ccccc1C,14,13
NC(=O)N/N=C1\CCCC1c1ccccn1 (configuration not stated),9,-1
Cc1cc2nc(NCC(C)O)c3ccccc3n2n1 (configuration not stated),4,10
O=C(O)c1cnn(-c2ccccc2)c1,11,4
O=C1CC(N2CCN(S(=O)(=O)c3ccc(Cl)cc3)CC2)C(=O)N1CCc1ccccc1 (configuration not stated),11,1
Cc1cccc(C(=O)N[C@@H]2C(=O)Nc3c(c(C)nn3C)[C@H]2c2ccccc2)c1,12,16
C[C@@H](C(=O)OCC(N)=O)N1C(=O)C2CC=CCC2C1=O (some centres not stated),2,2
CCN(Cc1nc2cc(Cl)ccc2c(=O)[nH]1)C(=O)c1cccc(NC(C)=O)c1,8,2
CCCN(CCC)C(=O)C1CCCN1/C=C/C(=O)C(F)(F)F (configuration not stated),12,10
N#Cc1ccc(C(=O)n2nc3c4c(cccc42)C(=O)c2ccccc2-3)cc1,12,8
O=C(Cn1cc(S(=O)(=O)N2CCCC2)ccc1=O)c1c[nH]c2ccccc12,13,4
O=C(COC(=O)c1ccccc1NC(=O)c1ccco1)c1ccccc1,14,2
CC(C#N)OC(=O)c1ccc(S(=O)(=O)N(C)C)cc1 (configuration not stated),-2,-3
O=C(CCCOc1ccccc1)N1CCN(Cc2ccc3c(c2)OCO3)CC1,3,-7
C/C(N)=C(/C#N)C(=O)CSc1ncnc2scc(-c3ccccc3)c12,11,3
CC(C)(CNS(=O)(=O)c1ccccc1Br)N1CCOCC1,18,12
CC1CNc2c(cccc2S(=O)(=O)N[C@@H](CCCN=C(N)N)C(=O)N2CC[C@@H](C)C[C@@H]2C(=O)O)C1 (some centres not stated),6,3
OC(CSc1nncn1-c1ccccc1)C(O)C(O)c1cnn(-c2ccccc2)n1 (configuration not stated),-18,-2
O=C(Nc1sc2c(c1C(=O)O)CCC2)c1cccnc1,18,3
Cc1cc(C(=O)CSc2nn3c(=O)c(C(C)(C)C)nnc3s2)c(C)n1C1CC1,21,9
Cc1cc2oc(=O)cc(COC(=O)c3ccccn3)c2cc1C,14,3
COC(=O)c1ccc2c(=O)n(CCO)c(SCCOc3ccccc3C)nc2c1,12,1
O=C(Cn1cnnn1)Nc1ccc(Cl)c(Cl)c1,9,3
O=C(COC(=O)c1ccco1)NCc1ccccc1,14,12
O=C(NCc1ccco1)c1ccccc1OCc1ccc(Cl)cc1,3,-1
COCCN1C(=O)/C(=C/N2CCN(S(=O)(=O)c3ccc(Cl)cc3)CC2)C(=O)NC1=S,18,14
O=S(=O)(c1ccccc1)N(Cc1ccc(Cl)cc1)c1nccs1,9,0
O=C(Oc1ccc2oc3ccccc3c2c1)c1ccc(=O)[nH]c1,2,4

# Exported as tab-separated lines: part of the list above.
structure	BmaI1	BmaI1 counterscreen
CC(=O)Nc1ccc(S(=O)(=O)NCCC(=O)Nc2nc(C)cs2)cc1	9	3
CCOC(=O)CCn1cnc2cc(Br)ccc2c1=O	21	12
CC1(C)CSC(=Nc2cccc(C(F)(F)F)c2)N1C(=O)/C=C/c1ccco1	10	14
CN1CCN(c2nc(-c3ccc(Cl)s3)cs2)CC1	4	12
CC(N)c1ccco1 (configuration not stated)	6	0
CCOC(=O)[C@H](CCc1ccccc1)N[C@@H](C)C(=O)N1[C@H](C(=O)O)C[C@@H]2CCC[C@@H]21	4&-6	11&8

# (list continues)
SMILES,BmaI1,BmaI1 counterscreen
Cc1nn(CC(=O)N2CCc3ccccc32)c(C)c1S(=O)(=O)N(C)C,12,4
COC(=O)c1ccc(/C=C(\C#N)C(=O)NC2CCCCC2)cc1,7,4
O=C(O)CCC(=O)c1ccc2c(c1)CCCC2,17,15
Nc1nc2cc(S(=O)(=O)N3CCOCC3)ccc2o1,2,-6
O=S(=O)(Nc1n[nH]c(C(F)(F)F)n1)c1ccccc1,16,14
O=C1c2ccccc2NC2(C(=O)N(Cc3ccccc3)c3ccccc32)N1C1CC1 (configuration not stated),16,19
O=C(O)/C=C/c1ccc(-n2ccnc2)cc1,10,1
O=c1cc(CSc2nnc(Nc3ccccc3)s2)nc2sccn12,8,10
CCN(C(=O)c1ccc2c(c1)OCO2)C12CC3CC(CC(C3)C1)C2,6,1
O=S(=O)(/C=C/c1ccccc1)N1CCN(Cc2coc(-c3cccs3)n2)CC1,18,-2
N#Cc1ccc(Cl)cc1NC(=O)CSc1nnc(-c2ccc(OC(F)F)cc2)n1N,8,9
O=C1CCCCCN1Cc1nnc(SCc2cnc(-c3ccccc3)s2)n1-c1ccccn1,15,8
CC(N)c1ccc(-n2ccnc2)cc1 (configuration not stated),6,4
NNC(=O)CN1C(=O)COc2ccccc21,-108,-73
O=C1CCCN1c1nc2ccccc2s1,14,11
CCc1ccc(S(=O)(=O)N(C)C2CCS(=O)(=O)C2)cc1 (configuration not stated),8,11
N#Cc1ccc(OCC(=O)N2CCCC2=O)cc1,16,14
O=C(CNS(=O)(=O)c1ccccc1)Nc1cccc(Cl)c1,6,8
O=C(Cn1nnc(-c2ccccc2)n1)N/N=C1\CCCc2ccccc21,2,2
Cc1sc(-n2cccc2)c(C(=O)OCc2ccc(C#N)cc2)c1C,28,6

# Random excerpt: two compounds from above, in no set order.
SMILES,BmaI1,BmaI1 counterscreen
N#Cc1ccc(OCC(=O)N2CCCC2=O)cc1,16,14
O=C1CCCN1c1nc2ccccc2s1,14,11

# Additional entries follow.
SMILES,BmaI1,BmaI1 counterscreen
O=c1c2ccccc2c(C=NCCCN2CCOCC2)c(O)n1Cc1ccccc1,18,4
Cc1nc(Cc2nnc(SCC(=O)NC(=O)c3cccn3C)o2)cs1,11,14
Nc1[nH]c(N=NC(=O)c2cccc(S(=O)(=O)N3CCOCC3)c2)c2ccccc12,12,8
CC(C)(C)c1ccc(-c2nnc(SCCC#N)n2C2CCCC2)cc1,-5,2
CC1CCCC(C)N1C(=O)COC(=O)c1ccc(-n2cccc2)cc1 (configuration not stated),19,11
O=C(CSc1nnnn1-c1ccccc1)NCC1CCCCC1,6,-1
C(=C\c1ccccc1)/CN1CCN(c2ncnc3sccc23)CC1,4,-2
C/C(=N\NC(N)=S)c1ccc(Cl)cc1,-8,17
C=C(C)CN(CC)c1nc(N)c2c(N)nc3c(c2c1C#N)CC(=O)N3CC1CCCO1 (configuration not stated),14,8
CCN(CC(=O)Nc1ccccc1OC)CC(=O)NC1CCCc2ccccc21 (configuration not stated),16,12
Cc1nn(-c2ccccc2)c2nc(-c3ccc4c(c3)OCO4)cc(-c3nnc4n3CCCCC4)c12,6,10
Cc1cccc(NC(=O)C(C)N2CCN(c3ccccc3O)CC2)c1 (configuration not stated),56,20
CC1=C(C(=O)N(C)C)C(c2ccc(-c3ccccc3)cc2)NC(=O)N1 (configuration not stated),13,8
O=C(Nc1cccnc1)C1=NN(C2CCS(=O)(=O)C2)C(=O)CC1 (configuration not stated),4,4
COc1ccc(/C=C/C(=O)OC2CCOC2=O)cc1OC (configuration not stated),17,8
O=C(COc1ccc(-n2cnnn2)cc1)NCC(F)(F)F,10,-1
O=C(NC1CC1)c1sccc1-c1ccccc1,-8,7
CCOc1ccc2nc(SC(C)C(N)=O)[nH]c2c1 (configuration not stated),19,8
CN1CCN(c2cc(C(=O)c3ccccc3O)cn3c(=O)c4ccccc4nc23)CC1,64,20
CCOC(=O)c1c(C)oc2nc(COC(=O)c3cc(-c4ccc(Cl)cc4)nc4ccccc34)nc(N)c12,4,7

# 3 compounds out of the list, ordered by molecular weight, largest number first:
SMILES,BmaI1,BmaI1 counterscreen
CCOC(=O)c1c(C)oc2nc(COC(=O)c3cc(-c4ccc(Cl)cc4)nc4ccccc34)nc(N)c12,4,7
COc1ccc(/C=C/C(=O)OC2CCOC2=O)cc1OC (configuration not stated),17,8
CCOc1ccc2nc(SC(C)C(N)=O)[nH]c2c1 (configuration not stated),19,8

# (further entries)
SMILES,BmaI1,BmaI1 counterscreen
COc1cc(OC)cc(C(=O)N(C)Cc2ccccc2C)c1,-2,1
Cc1oc2nc[nH]c(=O)c2c1C(=O)NCc1ccccc1,3,1
CC(=O)Nc1ccc(S(=O)(=O)N[C@@H](C)C(=O)N2CCN(C/C=C/c3ccccc3)CC2)cc1,-4,-2
CC(OC(=O)c1ccccc1F)C(=O)N1CCc2ccccc21 (configuration not stated),0,-1
